gsp agonist – agonists of gsp mutant (McCune-Albright syndrome). AID 624287. gsp mutant cells, cAMP HTRF, 30 min; control for the full effect not named in the record. Potency, µM (titrated, usually from 76.9 µM), for inactives: at the highest dose activation (cAMP increase), most hits filed as activators. 340,000 tested, 0.13% active; active = well fitted activation curve with a large enough effect; inconclusive = small, poorly fitted or top-dose-only effect, or another doubt; inactive = no such curve, though single readings can be large or run the other way; cell line not stated here;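 note: phosphodiesterase inhibitor Ro 20-1724 added with compounds to block cAMP breakdown; potency is the fitted concentration of half-maximal effect; nearly all actives have a fitted effect of over 60% in size; about a fifth of the inactives were tested at one dose only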
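Cells stably selected in G418 were plated at 2000/well, grown 16-24 hr, then given compounds in DMSO with the PDE inhibitor […] (300 uM solution added) for 30 min at 37C; cAMP was read by HTRF.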
gsp antag – gsp mutant antagonism. gsp-mutant cells, cAMP HTRF, 30 min; control for the full effect not named in the record. Potency, µM (doses to about 76.9 µM), for inactives: at the top dose activity change, negative = inhibition, most hits filed as inhibitors. AID 624288. 340,000 tested, 0.4% active; active = falling curve of any shape with a large fitted effect; inconclusive = falling curve, mostly with a smaller effect; inactive = flat or rising curve; cell line not stated here;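 note: intracellular cAMP measured with PDE inhibitor Ro 20-1724 present during compound exposure; potency is the fitted concentration of half-maximal effect; % is set by controls: 0 for no effect and ±100 for the full control effect; nearly all actives have a fitted effect of over 65% in size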
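G418-selected cells were plated in DMEM/10% FBS for 16-24 h at 37C, then treated with compounds plus the PDE inhibitor […] (300 uM solution added) for 30 min at 37C. Intracellular cAMP was measured by HTRF after 30 min lysis at room temperature.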
Menin MLL FP FL – displaces fluorescein MLL peptide from human menin. Fluorescence polarization, fluorescein-MLL peptide displacement from menin. 290,000 tested, under 10 active. FP activity change, % at 61.4 µM. AID 1766; inconclusive = falling polarisation curve, or a change in total fluorescence; inactive = total fluorescence flat and polarisation flat or rising; no compound was filed as active; the % refers to the polarisation; negative = inhibition;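 note: % of control where 0% means no effect; inhibitors lower the polarisation; unlabelled MLL peptide was the positive control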
ClpP mod – qHTS Assay for Activators of ClpP | purified B. subtilis ClpP, FRET peptide cleavage, 20 min | Potency, µM (top dose mostly 57.5 µM), for the others: at the highest dose activity change, negative = active | 340,000 tested, 1.9% active; active = well fitted falling curve with a large enough effect; inconclusive = small, poorly fitted or top-dose-only effect; inactive = no such curve, though single readings can be large or run the other way; note: potency is the fitted concentration of half-maximal effect; the source files actives as falling curves though it sought activators and does not explain the sign; nearly all actives have a fitted effect of over 65% in size; many hits overshoot -100%
Target sequence (P80244 whole entry, looked up): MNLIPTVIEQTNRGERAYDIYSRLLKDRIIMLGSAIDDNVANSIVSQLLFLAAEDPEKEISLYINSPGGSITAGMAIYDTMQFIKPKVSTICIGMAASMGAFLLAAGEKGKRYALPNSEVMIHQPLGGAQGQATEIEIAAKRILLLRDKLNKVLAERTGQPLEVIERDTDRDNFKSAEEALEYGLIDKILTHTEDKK
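FRET quenching reversal measured ClpP activation: 10 microg/mL B. subtilis ClpP at pH 8 with the FRET-FV decapeptide, read at 430 nm after 320 nm excitation. The 20-min minus 0-min signal was scaled between DMSO/no-enzyme wells and ADEP (5.8 microM final).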
TRPML1 ag – human mucolipin-1 channel agonism | Q9GZU1 | TRPML1-expressing cells, Ca2+ dye fluorescence, FDSS; host cell line not named in the record; reference of the full effect not given here | activation, % (test concentration not listed) | 410,000 tested, 0.12% active | AID 624414; in the data active = activation above about 50%; inconclusive = about 30% to 50%; inactive = below about 30%; note: 0% is about no effect; the text of the record puts the active cut at 80%
Target sequence (Q9GZU1 whole entry, looked up): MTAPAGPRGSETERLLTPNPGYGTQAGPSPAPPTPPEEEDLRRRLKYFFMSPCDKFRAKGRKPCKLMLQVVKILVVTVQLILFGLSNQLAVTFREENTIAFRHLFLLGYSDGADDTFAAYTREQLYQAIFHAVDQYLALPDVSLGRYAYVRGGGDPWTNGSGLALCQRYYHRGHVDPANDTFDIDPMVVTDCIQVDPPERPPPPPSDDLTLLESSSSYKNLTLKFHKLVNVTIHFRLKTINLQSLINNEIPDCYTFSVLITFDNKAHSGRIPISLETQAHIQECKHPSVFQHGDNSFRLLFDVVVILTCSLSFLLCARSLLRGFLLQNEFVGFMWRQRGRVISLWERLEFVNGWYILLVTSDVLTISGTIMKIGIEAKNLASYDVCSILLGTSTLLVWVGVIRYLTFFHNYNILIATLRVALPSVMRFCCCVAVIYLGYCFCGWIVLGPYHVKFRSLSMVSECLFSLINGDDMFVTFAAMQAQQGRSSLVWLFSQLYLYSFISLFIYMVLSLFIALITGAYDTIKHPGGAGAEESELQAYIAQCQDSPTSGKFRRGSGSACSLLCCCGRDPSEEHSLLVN
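Calcium fluorescence on an FDSS kinetic reader gave the read-out. Tet-induced TRPML1-DL cells were plated overnight, dye-loaded (Ca8 with quencher, 45-90 min, room temperature, dark), then read 110 s after compound addition, and again 110 s after 4uM final 54-4 (EC80).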
TRPML1 inh – blocks the human TRPML1 channel | TRPML1-inducible cells, Ca2+ dye fluorescence, FDSS; stronger effect = lower value; inhibition of EC80 agonist-evoked calcium signal | 390,000 tested, 0.02% active | activity change, negative = inhibition, % (concentration not given with the values) | Q9GZU1; in the data active means activity change below about -50%; inconclusive means about -30% to -50%; inactive means above about -30%;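 note: stimulus is agonist 54-4 at its EC80 concentration; % is set by controls: 0 for no effect and ±100 for the full control effect; compound concentration not given in the record; the text of the record puts the active cut at -80%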
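Calcium fluorescence in TRPML1-DL cells induced overnight with Tet: a 110 s read after compound pin addition, then a 110 s antagonist read after challenge with 54-4 at 4 uM final (EC80).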
Starred values were filed as active, the others as inactive; u = inconclusive; x = no result given; & = joins results of further samples; [ ] = remark or other dose.

SMILES | gsp agonist | gsp antag | Menin MLL FP FL | ClpP mod | TRPML1 ag | TRPML1 inh
O=c1c(=O)n(-c2ccccc2)ccn1Cc1cccc(C(F)(F)F)c1 | x | x | x | 0.4% | -0.3 | 9.7
COc1cccc(NC(=O)CCNS(=O)(=O)c2ccc3c(c2)CC(C)N3C(=O)C2CC2)c1 (configuration not stated) | -40.1%[inhibitor] | -5.4% | 3.9 | 0.2% | 0.8 | 2.7
CCOc1ccc(OCC(=O)NCCS(=O)(=O)N2CCN(c3ccccc3F)CC2)cc1 | x | x | x | -1.4% | 4.0 | -12.0
CCC(=O)N1CCc2cc(Br)cc(S(=O)(=O)N3CCCC(C(=O)Nc4ccc(C)c(F)c4)C3)c21 (configuration not stated) | x | x | x | -3.9% | -0.9 | 19.4
O=Cc1cc(N=Nc2ccc(S(=O)(=O)O)cc2)ccc1O | -5.3%[15.4 µM] | -9.2% | x | -0.5% | 0.1 | -10.8
CCC(c1nnnn1C(C)(C)C)N1CCN(C2CCCC2)CC1 (configuration not stated) | -13.8% | 2.5% | -1.8 | -4.1% | -0.3 | -8.4
Cc1ccc(C(=O)Nc2cccnc2)cc1S(=O)(=O)N1CCCCC1 | 2.0%[15.4 µM] | -12.1% | -5.6 | x | 0.1 | 7.7
CC(C)c1ccc(N(CC(=O)N/N=C/c2ccc(OC3CSC3)cc2)S(=O)(=O)c2ccccc2)cc1 | 10.1% | 7.7% | 1.4 | -29.9% | 1.3 | -1.4
Cc1ccc(C)c(NC(=O)c2ccccc2NS(=O)(=O)c2cc([N+](=O)[O-])ccc2C)c1 | u | u | 2.1 | -0.9% | 2.2 | 31.5
Cc1[nH][nH]c(=O)c1C(c1ccccc1[N+](=O)[O-])C(C#N)C#N (configuration not stated) | 11.8%[15.4 µM] | 1.8% | -5.9 | x | -0.5 | -2.7
Cc1ccc(S(=O)(=O)N/N=C/c2cc(Br)ccc2O)cc1 | 12.4% | 3.5% | 0.8 | 2.8% | 0.7 | -8.3
COc1cc(NC(=S)N2CCN(c3ccccn3)CC2)c(OC)cc1Cl | -36.7%[inhibitor] | -14.8% | -3.2 | -17.1% | 1.3 | -7.5
O=C(N/C(=C/c1ccccc1Cl)C(=O)N1CCCCC1)c1ccco1 | -6.9% | -0.9% | x | -1.5% | 0.5 | -9.0
CC(=O)c1cccc(NC(=O)C2CCN(C(=O)c3cccs3)CC2)c1 | 28.8%[15.4 µM] | -43.6% | 0.3 | x | 0.2 | 4.2
O=C(O)Cc1ccc(NC(=S)Nc2ccc(Br)cc2Cl)cc1 | -11.5% | 5.4% | 1.8 | -0.9% | 1.4 | -15.2
Cc1ccsc1C(=O)OC1CCOC1=O (configuration not stated) | -52.2%[inhibitor] | -2.6% | 0.6 | 0.8% | 0.6 | 7.5
CN(Cc1ccccc1)S(=O)(=O)c1ccc(Cl)c(C(=O)NCc2ccc3c(c2)OCO3)c1 | -19.2% | -17.1% | 9.7 | -1.1% | 1.2 | -20.7
CC(/C=N/NC(=O)CSc1nc2ccccc2n1C)=C\c1ccco1 | u | 11.9% | 8.0 | 2.6% | 3.5 | 14.9
O=C(NCc1nc2ncc(Br)cc2[nH]1)c1ccccc1 | 16.7% | 7.1% | -0.3 | -3.9% | 1.1 | -4.6
CCCOC(=O)C1C2C=C[C@]3(CN(CCc4ccccc4)C(=O)[C@H]13)O2 (some centres not stated) | u | -11.3% | 1.3 | -3.0% | -0.3 | -4.7

Full records as entered above:
`O=Cc1cc(N=Nc2ccc(S(=O)(=O)O)cc2)ccc1O` is entered as gsp agonist = -5.3%[15.4 µM]; gsp antag = -9.2%; Menin MLL FP FL = x; ClpP mod = -0.5%; TRPML1 ag = 0.1; TRPML1 inh = -10.8
`Cc1[nH][nH]c(=O)c1C(c1ccccc1[N+](=O)[O-])C(C#N)C#N` (configuration not stated) is entered as gsp agonist = 11.8%[15.4 µM]; gsp antag = 1.8%; Menin MLL FP FL = -5.9; ClpP mod = x; TRPML1 ag = -0.5; TRPML1 inh = -2.7

Continued:
SMILES | gsp agonist | gsp antag | Menin MLL FP FL | ClpP mod | TRPML1 ag | TRPML1 inh
COCCNC(=O)C1CCC(CNS(=O)(=O)c2ccccc2)CC1 (configuration not stated) | -23.4% | 9.3% | 1.5 | 1.3% | 3.8 | -15.3
CCOc1ccccc1N1CCN(Cc2ccc(OC)c(OC)c2)CC1 | -35.7%[inhibitor] | 0.2% | -0.4 | -1.8% | -1.3 | -5.8
Cc1cc(Cl)ccc1NC(=O)c1ccc2c(c1)CCN2S(C)(=O)=O | -1.7% | -12.2% | 1.6 | 0.5% | -0.2 | 12.1
CCCCN(CC)Cc1ccc(CNC(=O)Nc2ccc(Cl)cc2)o1 | -44.1%[15.4 µM] | 0.5% | -0.9 | x | 0.9 | -1.7
Cc1ccc(C(=O)NC(CCc2ccccc2)C(=O)O)cc1 (configuration not stated) | x | 3.8% | x | -2.4% | 0.2 | 3.7
O=C(CSc1n[nH]c(-c2cccnc2)n1)Nc1ccnc2ccccc12 | -54.5%[inhibitor] | -11.4% | 11.3 | -3.4% | -0.6 | 5.9
O=C(c1cc(-c2ccc(F)cc2)no1)N1CCN(Cc2ccc3c(c2)OCO3)CC1 | u | -11.9% | 3.4 | 1.0% | 0.4 | -0.6
O=C(NN1C(=O)NC2(CCCCC2)C1=O)c1ccc(Cl)s1 | -12.3% | 8.8% | x | 2.5% | 0.0 | -5.3
COc1ccc(C(Nc2ccccn2)c2c(NC(=O)c3ccco3)sc(C)c2C)cc1OC (configuration not stated) | -6.5% | -10.5% | 0.1 | -2.9% | -1.4 | -9.5
COc1cc(C2N(c3ccccc3)CCN2c2ccccc2)ccc1OC(C)=O | u | 3.4% | 0.7 | -2.0% | 6.1 | -3.0
COC(=O)c1c(SCC(=O)Nc2cc(OC)cc(OC)c2)[nH]c2ccc(C)cc2c1=O | x | x | x | 0.2% | 0.1 | -4.9
CC(=O)c1sc(NC(=O)CCNC(=O)c2ccco2)nc1-c1ccccc1 | -1.2% | -3.7% | x | -1.4% | -0.2 | -10.2
COC(=O)c1c(N)sc2c1CCN(c1ncc(C(F)(F)F)cc1Cl)C2 | -12.1% | 2.2% | 9.8 | -24.0% | 1.0 | 10.7
Cc1oc(-c2ccccc2)cc1C(=O)Nc1ccc2ccccc2c1 | u | 10.9% | 7.9 | -10.2% | 0.5 | 39.3
CC1Cc2cc(/C(O)=C3/C(=O)C(=O)N(CCCn4ccnc4)C3c3ccco3)ccc2O1 (configuration not stated) | 2.5% | 5.3% | 3.4 | -0.4% | -0.3 | -0.2
COc1ccc(NC(=O)c2ccco2)cn1 | -6.4% | 6.8% | u | x | 0.2 | 13.9
NC(=O)CCC(NC(=O)OCc1ccccc1)C(=O)OCC(=O)c1ccccc1 (configuration not stated) | 24.5% | x | x | -2.0% | -0.1 | 22.9
COCCN(CC(=O)Nc1cccc(S(=O)(=O)N2CCCC2)c1)Cc1nc2ccccc2c(=O)[nH]1 | u | -0.4% | x | -2.4% | 0.6 | -6.5
O=S(=O)(c1ccc2nc(N3CCN(c4ccccc4F)CC3)ccc2c1)N1CCCCC1 | -29.5% | 14.3% | x | u | 0.8&1.6 | -8.0&-22.5
Cc1ccc(CNCc2ccccc2Cl)s1 | x | x | x | 1.8% | 1.1 | 6.1
NS(=O)(=O)c1cccc(NC(=O)COC(=O)CCSc2ccccc2)c1 | 1.2%[15.4 µM] | 2.5% | 1.6 | 15.8µM* | -0.1 | 32.6
CN(CCc1ccccn1)Cc1ccc(Cl)cc1 | -1.9% | 6.3% | -0.4 | 0.3% | 0.7 | 18.8
O=C(COC(=O)CNC(=O)c1cccc([N+](=O)[O-])c1)Nc1ccccc1OC(F)F | -23.1% | u | 3.5 | 2.1% | 0.7 | -19.0
O=C1[C@H]2[C@@H](c3ccc(F)cc3)N3C(=O)N(c4ccc(Br)cc4)C(=O)[C@@]3(Cc3ccccc3)[C@H]2C(=O)N1C1CCCCC1 | 5.8% | -3.8% | 0.2 | 1.1% | 0.1 | 35.3
CCCCN(CCCC)c1ncnc2c1cnn2-c1cccc(C)c1 | x | x | x | -17.6% | 2.0 | 11.2
C=CCn1c(SCC(=O)Nc2ccccc2C)nc2sc(C)c(C)c2c1=O | -3.6% | -0.7% | -0.9 | -1.7% | -0.8 | 2.2
COc1cc(C2CC(=O)Nc3ccc4ccccc4c32)ccc1OC(=O)C(C)C (configuration not stated) | x | x | x | -20.3% | -0.8 | -13.3
CCc1ccc(-n2nnc(-c3nsc(NC(=O)c4ccccc4Cl)n3)c2C)cc1 | x | x | x | 1.8% | -1.4 | 1.7
CC(C)Cn1c(N)c(C(=O)COC(=O)Cc2cccs2)c(=O)n(C)c1=O | 10.1%[15.4 µM] | u | x | -3.8% | -0.1 | 10.7
CC(C)OC(=O)c1cccc(C(=O)Nc2cccc(NC(=O)c3cccc(C(=O)OC(C)C)n3)n2)n1 | 12.0% | -0.9% | -5.8 | x | -0.1 | -12.9
CCOC(=O)c1c(C)oc2ccc(N(C(=O)c3ccncc3)S(=O)(=O)c3ccc(F)cc3)cc12 | x | x | x | 0.2% | 3.6 | 11.8
CC(C)Oc1ccc(C(=O)NC2CCN(Cc3ccccc3)CC2)cc1 | -0.3%[15.4 µM] | 7.7% | -1.1 | x | -1.3 | -15.4
CCCCC(=O)Nc1nc(C)c(-c2csc(Nc3cc(Cl)ccc3OC)n2)s1 | 9.0% | 2.0% | 0.7 | -10.3% | -0.7 | -9.5
S=C(Nc1ccccc1)Nc1nc2ccccc2n1CCOc1ccc(Cl)cc1 | -18.5% | 6.4% | 1.2 | 1.6% | 0.1 | -2.3
CC1CCc2c(sc(NC(=S)NC(=O)c3ccccc3)c2C#N)C1 (configuration not stated) | -28.9% | 2.9% | 3.3 | 0.3% | 1.6 | -5.5
N#C/C(=C(/O)COc1ccc(Cl)cc1)c1nc2ccccc2s1 | 2.1%[15.4 µM] | 1.5% | -5.9 | x | 1.6 | 19.1
O=C(COc1ccccc1)N1CCN=C1SCc1ccccc1 | -8.8%[15.4 µM] | 4.5% | -0.3 | x | -0.9 | 17.4
N#CC1=C(N)Oc2cc(N)ccc2C1c1ccc(F)cc1 (configuration not stated) | -20.6% | u | 14.5 | -0.2% | -0.6 | -10.8
Cc1cc(=O)c(C(=O)O)nn1-c1ccccc1F | -10.9%[15.4 µM] | -9.1% | -0.6 | x | -0.6 | -2.0
O=C(NCc1cccs1)C(=O)NCC(c1ccco1)N1CCN(c2ccccc2F)CC1 (configuration not stated) | -35.1%[inhibitor] | -20.5% | -1.4 | -0.4% | x | x
COc1ccc(C(=O)NN(C)c2nc(C(F)(F)F)nc3ccccc23)cc1 | -9.4% | 8.0% | -2.4 | x | -0.4 | 15.7
CCOc1cc(/C=C2\C(=N)N3N=C(N4CCCCC4)SC3=NC2=O)ccc1OC(=O)c1ccco1 | -36.5%[inhibitor] | -18.7% | u | -1.3% | -0.1 | 0.7

Compound activity as filed in PubChem.

Compounds were not picked by outcome; about 2.1% have a hit in one of these screens.
